TRPML1 ag = human mucolipin-1 channel agonism. activation, % (test concentration not listed). 410,000 compounds, 0.12% hits. Q9GZU1. TRPML1-expressing cells, Ca2+ dye fluorescence, FDSS; host cell line not named in the record; reference of the full effect not given here. AID 624414; in the data active = activation above about 50%; inconclusive = about 30% to 50%; inactive = below about 30%; note: 0% is about no effect; the text of the record puts the active cut at 80%
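Tet-induced TRPML1-DL cells, 1,500 per well, cultured overnight, were loaded with a no-wash Ca2+ dye for 45–90 min. Calcium fluorescence was recorded on the FDSS for 110 s after compound addition, before the EC80 agonist (4 uM 54-4) was added.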
D2 potentiator = positive allosteric modulators of human D2 dopamine receptor; P14416; DiscoveRx D2 beta-arrestin cells, luminescence, 90 min; 100% = 57 uM dopamine signal; potentiation, % (no concentration beside the values); 360,000 compounds, 0.23% hits; active = potentiation of 50% or more; inconclusive = 30% to 50%; inactive = 30% or less;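 note: compound concentration not given in the record; tested on top of an EC20 dose of dopamine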
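PathHunter beta-arrestin assay in DiscoveRx D2 cells. Compounds were added with an EC20 of dopamine (50 nM final) for 90 min at 37 deg C. Luminescence was read 1 h after detection reagent, with 57 uM dopamine as the EC100 control.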
Six1-Eya2 inh = inhibitors of human Six1/Eya2 interaction | Q15475+O00167 | AlphaScreen GST-Six1/His-Eya2 binding, biochemical; hits give low values; control for the full effect not named in the record | activity change, % (concentration not given with the values) | 360,000 compounds, 0.56% hits | AID 651725; in the data active = activity change below about -65%; inconclusive = about -30% to -65%; inactive = above about -30%; note: % is set by controls: 0 for no effect and ±100 for the full control effect
Target sequence (O00167 whole entry, looked up): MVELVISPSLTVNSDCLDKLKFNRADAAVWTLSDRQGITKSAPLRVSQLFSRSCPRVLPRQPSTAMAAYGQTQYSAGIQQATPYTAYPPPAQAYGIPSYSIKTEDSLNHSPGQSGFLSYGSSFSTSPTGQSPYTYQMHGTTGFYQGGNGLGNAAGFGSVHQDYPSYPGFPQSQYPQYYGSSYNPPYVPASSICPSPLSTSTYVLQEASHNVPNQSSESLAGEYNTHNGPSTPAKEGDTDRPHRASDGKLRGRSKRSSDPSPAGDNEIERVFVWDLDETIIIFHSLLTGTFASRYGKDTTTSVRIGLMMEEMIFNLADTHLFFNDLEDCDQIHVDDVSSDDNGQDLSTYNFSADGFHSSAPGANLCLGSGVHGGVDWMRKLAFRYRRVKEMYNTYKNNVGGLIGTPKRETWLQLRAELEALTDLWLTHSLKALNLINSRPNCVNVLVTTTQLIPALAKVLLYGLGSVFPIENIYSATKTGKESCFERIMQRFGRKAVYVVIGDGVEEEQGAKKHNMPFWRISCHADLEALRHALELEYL
Target sequence (Q15475 whole entry, looked up): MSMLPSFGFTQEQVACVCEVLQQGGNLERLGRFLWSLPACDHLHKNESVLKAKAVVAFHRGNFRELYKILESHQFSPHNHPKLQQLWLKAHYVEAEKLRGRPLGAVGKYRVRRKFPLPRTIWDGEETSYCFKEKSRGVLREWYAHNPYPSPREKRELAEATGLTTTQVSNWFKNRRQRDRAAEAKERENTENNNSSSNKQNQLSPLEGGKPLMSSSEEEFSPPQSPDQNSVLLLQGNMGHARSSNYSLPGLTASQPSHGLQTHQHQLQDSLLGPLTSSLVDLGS
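GST-Six1 + His-Eya2 (5X stock: 250/500 nM); Tris pH 8.0, 300 mM NaCl, 0.05% BSA, 0.02% Tween 20; GSH donor/Ni acceptor beads; 1 h 37 °C dark; AlphaScreen readout.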
PINK1 modulator = changes PINK1 expression; Potency, µM (series often up to 76.6 µM), inactives show at the top dose activation (PINK1 increase), usual class: activators; PINK1 immunofluorescence, high-content cytometry, 24 h; 410,000 compounds, 0.2% hits; AID 624263; active = well fitted activation curve with a large enough effect; inconclusive = small, poorly fitted or top-dose-only effect; inactive = flat fitted curve, though single readings scatter; cell line not stated here;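 note: potency is the fitted concentration of half-maximal effect; % of control where 0% means no effect; nearly all actives have a fitted effect of over 65% in size; a mitochondrial uncoupler was the plate control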
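A stable cell line was treated with compounds at 5 concentrations for 24 hours, with CCCP as control. PINK1 levels and mitochondrial localization were measured by immunofluorescence with mitochondrial, cell and nuclear markers after fixation, read by laser-scanning cytometry.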
D2 ag = agonists of human D2 dopamine receptor (beta-arrestin). P14416. DiscoveRx PathHunter D2 beta-arrestin, luminescence, 90 min; 100% = 57 uM dopamine signal. activation, % (concentration not given with the values). 360,000 compounds, 0.084% hits. AID 624465; in the data active = activation above about 40%; inconclusive = about 15% to 40%; inactive = below about 15%; note: the text of the record calls up to 30% inactive
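Agonist mode: compounds alone added to overnight-plated D2 PathHunter cells for 90 min at 37 C, with 57 uM final dopamine (EC100) defining full response. Beta-arrestin recruitment detected by chemiluminescent reagent, read after 1 h at ambient temperature.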
CtBP-E1A inh = inhibitors of CtBP/E1A interaction; 340,000 compounds, 0.49% hits; activity change, % (no concentration beside the values); AlphaScreen GST-E1A/His-CtBP binding, 1536-well; hits give low values; control for the full effect not named in the record; AID 651724; in the data active means activity change below about -65%; inconclusive means about -30% to -65%; inactive means above about -30%; note: % is set by controls: 0 for no effect and ±100 for the full control effect
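Homogeneous bead-based format: GST-tagged E1A captured on glutathione donor beads, His-tagged CtBP on nickel acceptor beads; compounds precede bead addition by 2 h at 37 °C.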
An asterisk follows results filed as active; u = inconclusive; x = no result given; & = joins results of further samples; [ ] = dose if it differs, or a comment.

smiles	D2 ag	CtBP-E1A inh	TRPML1 ag	PINK1 modulator	D2 potentiator	Six1-Eya2 inh
O=C(Nc1cccc2nsnc12)c1cccs1	-1.1&0.0	-4&12	-0.3&-0.9	0.5%&-3.5%	7&-8	-2&9
COc1cc2ccccc2cc1C(=O)Nc1ccc(N2CCN(C)CC2)cc1	1.4	-20	0.0	x	-24	-28
O=C(NN=C1c2ccccc2-c2ccccc21)c1cccc(Br)c1	1.3	-2	0.3	12%	-5	1
CN1CCN(CC#CCC(O)(c2ccccc2)C2CCCC2)CC1 (configuration not stated)	-3.8	1	1.0	-1.0%	-12	7
COc1ccccc1N1C(=O)CC(Sc2ncccc2C(=O)O)C1=O (configuration not stated)	-1.2	3	-0.6	3.8%	-5	4
CN(CCC1CCOCC1)C(=O)CC1C(=O)NCCN1Cc1cccc(F)c1 (configuration not stated)	-3.6	-1	-0.6	0.2%	1	-1
CCCn1c(N)c(N(CCOC)C(=O)CSCC(=O)Nc2cccc(C)c2)c(=O)[nH]c1=O	1.6	9	-0.2	0.3%	13	-1
O=C(c1cc(Cl)ccc1F)N1CCCC(Nc2ccc3c(c2)OCCO3)C1 (configuration not stated)	-0.3	-1	0.1	2.0%	-7	-17
COc1ccccc1C(=O)NC(=O)COC(=O)c1oc2ccccc2c1C	5.2	4	-0.8	3.7%	-2	-1
CCn1c(=O)c2cc(C(=O)Nc3ccccc3OC)sc2c2ccccc21	-6.1	x	0.5	3.2%	-15	4
COc1cccc(C(=O)NC2(C(F)(F)F)N=C3SCCN3C2=O)c1 (configuration not stated)	-3.0	1	-0.6	3.2%[38.3 µM]	-1	2
CC(=O)N1CCN(c2ccccc2NC(=O)c2ccco2)CC1	1.6	-2	0.0	-0.7%	-2	-6
CC(C)(C)OC(=O)C[C@@H]1C/C=C\C[C@@H](CC(=O)NCCO)C(=O)NC[C@@H](c2ccccc2)OC1=O	-5.4	6	0.1	-0.9%	-4	10
CSc1c2c([nH]c(=O)c1C#N)-c1ccccc1CC2	10	-15	-0.9	3.3%	-1	-2
CCOc1ccc(Nc2nc(-c3cccnc3)cs2)cc1	-2.7	-20	-0.2	2.5%	10	24
O=C1CCC(C(=O)N2CCSCC2)CN1CCc1ccccc1 (configuration not stated)	-1.0	-6	0.3	-0.7%	-8	4
C=CCN(c1ccccc1)S(=O)(=O)c1cccc(C(=O)N2CCCC2)c1	-0.5	11	0.8	4.5%	4	4
CC(C)C[C@H]1CNC(=S)N1CC1CCCN1C[C@H](Cc1ccccc1)N1C[C@H](Cc2ccccc2)N(CC2CCCCC2)C1=S (some centres not stated)	1.0	6	0.1	10%	0	-7
Cc1c(Cl)cccc1NC(=O)COC(=O)Cc1ccsc1	3.7	7	0.3	-0.3%	-1	-2
CC1(C(=O)NS(=O)(=O)c2cccc(OC(F)F)c2)CCN1C(=O)c1ccccc1 (configuration not stated)	-4.0	5	-0.7	-0.1%	-2	1
CCN1/C(=C/c2ccc3cc(C)ccc3[n+]2C)Sc2ccc3sccc3c21	-7.9	x	1.3	3.5%	-14	-16
COc1ccc(OC)c(S(=O)(=O)N2CCN(C(=O)c3cc(C4CC4)nn3-c3ccccc3)CC2)c1	-4.2	-11	3.0	0.9%	-4	-3
CC(C)N(C(=O)CSc1nc2c([nH]1)c(=O)n(C)c(=O)n2C)c1ccccc1	-0.1	6	-0.5	-0.2%	-3	-2
CCOC(=O)c1c(S(=O)(=O)NCC(=O)NCc2cccc(C)c2)c(C)n(C)c1C	-5.7	-5	-0.8&1.4	0.7%&3.5%	-10	-1
COc1cc(-c2c(-c3cccc(C)c3)oc3ccccc23)cc(OC)c1OC	-0.4	-1	-0.6	25%	-2	5

Brought forward from above: five compounds, followed by the next part.
smiles	D2 ag	CtBP-E1A inh	TRPML1 ag	PINK1 modulator	D2 potentiator	Six1-Eya2 inh
CCN1/C(=C/c2ccc3cc(C)ccc3[n+]2C)Sc2ccc3sccc3c21	-7.9	x	1.3	3.5%	-14	-16
COc1ccc(OC)c(S(=O)(=O)N2CCN(C(=O)c3cc(C4CC4)nn3-c3ccccc3)CC2)c1	-4.2	-11	3.0	0.9%	-4	-3
CC(C)N(C(=O)CSc1nc2c([nH]1)c(=O)n(C)c(=O)n2C)c1ccccc1	-0.1	6	-0.5	-0.2%	-3	-2
CCOC(=O)c1c(S(=O)(=O)NCC(=O)NCc2cccc(C)c2)c(C)n(C)c1C	-5.7	-5	-0.8&1.4	0.7%&3.5%	-10	-1
COc1cc(-c2c(-c3cccc(C)c3)oc3ccccc23)cc(OC)c1OC	-0.4	-1	-0.6	25%	-2	5
O=C(CC[C@H]1O[C@@H](n2cnc3c(NC(=O)c4ccccc4)ncnc32)[C@H](O)[C@@H]1O)NCc1nc2ccccc2[nH]1	5.0	2	-0.5	0.7%	-8	-2
CCN1CCC2(CC1)C(C#N)=C(N)Oc1c2sc2nc(C)cc(C)c12	6.1	-17	4.2	2.5%	-16	-21
CCOC(=O)c1cnc(C(C)(C)C)[nH]c1=O	-1.7	5	1.0	-0.8%	1	7
Cc1cc(/C=C2\NC(=S)N(C)C2=O)ccc1N1CCCC1	4.8	1	94*	u	-5	-12
COc1ccc(C/C(N)=N/OC(=O)C(c2ccccc2)c2ccccc2)cc1OC	7.4	2	2.6	x	50*	4
Cn1cccc1/C=N/N1CCN(c2ccccn2)CC1	4.3	4	-0.5	1.1%	-3	-19
Cn1c[n+](C)cc1/C=N/O	-2.0	5	0.6	2.3%	4	6
O=C(NC1CCCC1)C1c2ccccc2OCC(=O)N1Cc1ccccc1 (configuration not stated)	x	4	-0.8	-0.1%	x	3
COc1cc(C(=O)Nc2ccc(S(=O)(=O)N3CCCCC3)cc2)ccc1OCC(=O)N1CCOCC1	3.4	-4	0.9	1.1%	-3	0
CN(CCOc1ccccc1)CC(=O)Nc1ccc([N+](=O)[O-])cc1Cl	-0.5	-6	3.3	1.8%	0	-12
Clc1ccc(-c2nc3c4ccccc4ccn3c2Cc2cccc(Cl)c2)cc1	x	3	18	1.9%	x	7
O=C(NCCNC(=O)C1CC2CCC1C2)C1CC2CCC1C2 (configuration not stated)	-2.4	-6	0.3	-2.2%	-8	10
O=C(NNc1cccc(Cl)n1)c1cccnc1Cl	2.5	x	0.8	2.3%	-7	1
CCOC(=O)[C@H](O)[C@@H](O)c1cccc([C@H](O)[C@@H](O)C(=O)OCC)c1	-1.1	7	-0.5	0.5%	-13	1
COc1ccc(OCCCC(=O)OC(C)C(=O)Nc2cccc(C(C)=O)c2)cc1 (configuration not stated)	-0.9	-19	1.8	2.6%	-5	3
CC1(C)Oc2ccc(C(=O)NC3CCCC3)cc2N(CC(=O)NC2CCCC2)C1=O	0.1	0	-0.5	0.8%	-5	8
CC(C)CCN1CCN(Cc2cccc(-n3cccn3)c2)CC1CCO (configuration not stated)	-4.1	7	-0.8	1.9%	-22	-3
CCOC(=O)C1=C(C)N=C2SC(CC)C(=O)N2C1c1cccc(F)c1 (configuration not stated)	-1.4	-2	1.4	0.5%	-21	8
COC(=O)C1=NNC2(c3ccc(C)cc3)C(=O)N(c3cccc(C)c3C)C(=O)C12 (configuration not stated)	-0.8	-16	0.8	4.2%	-17	1
COc1ccc2nc(SCCOC(=O)Nc3ccc(Cl)cc3)nc(C)c2c1	2.3	15	0.5	3.7%	-13	15
CCCN(Cc1ccccc1)S(=O)(=O)c1ccc(N2C(=O)CCC2=O)cc1	-0.9	3	-1.6	-0.2%	-15	-3
Cc1ccc(CSCC(=O)N(C)CC(=O)Nc2ccccc2C(F)(F)F)cc1	-2.4	-5	-0.6	-1.0%	1	-13
O=C(Nc1cccnc1)c1cccnc1Cl	0.6	4	0.2	-2.1%	-6	4
Nc1ccc(Cc2ccc(N)c(O)c2)cc1O	u	-3	0.6	4.9%	u	-5
COc1ccc(NC(=O)c2c[nH]c(=O)n(-c3ccc(C)c(C)c3)c2=O)cc1OC	1.5	-4	-0.4	1.4%	3	-11
CCOC(=O)c1ccccc1NC(=O)COC(=O)c1ccc(OCC(=O)N2CCOCC2)c(OCC)c1	0.8	-5	2.4	11%	-1	6
O=C(O)c1ccccc1NSc1ccccc1[N+](=O)[O-]	-5.3	-16	2.2	2.5%	-3	u
CCN(CC(=O)Nc1c(F)cccc1F)C(=O)CSC(=S)N1CCCC1	3.5	6	-0.2	-0.4%	-3	-3
CCOC(=O)c1cccc(C2=CC(=O)C[C@H](c3ccc(OC)cc3)C2)c1	1.3	x	3.3	3.7%	-4	-1
Cc1ccc(CNC(=O)OC2CC3CC2[C@H]2CCCCN2C3=O)cc1 (some centres not stated)	x	1	-0.4	0.4%	x	15
COc1ccc(N(CC(=O)NCCOc2ccccc2)S(=O)(=O)c2ccc(C)cc2)cc1	0.5	0	1.8	1.2%	-11	-15
C[C@@H]1CCCCO[C@@H](CN(C)S(=O)(=O)c2cn(C)cn2)[C@@H](C)CN([C@H](C)CO)C(=O)c2cc(N(C)C)ccc2O1	-5.6	1	-0.1	-0.2%	2	-4
NCCCC[C@@H]1NC(=O)c2cc([N+](=O)[O-])cc(I)c2SC[C@@H](C(=O)NCC(N)=O)NC(=O)CNC1=O	4.3	0	0.8	0.2%	2	12
CNC(=O)CC1C(=O)N(c2ccc(Cl)cc2)C(=S)N1NC(=O)c1cccc(F)c1 (configuration not stated)	-7.9	x	0.6	1.8%	-6	4
N/C(=N\OC(=O)c1ccco1)c1ccccc1	8.6	7	0.3	-0.2%[38.3 µM]	u	4
CN(C)C(=O)C1C2NC(=S)N(c3cccc(Cl)c3)C1(C)Oc1ccc(Cl)cc12 (configuration not stated)	-5.4	-16	-0.6	1.0%	-5	-2
COc1ccc(Nc2nc3c(C)cccn3c(=O)c2C=O)cc1	-4.9	-3	-0.1	5.0%	-3	1

Screening data from PubChem.
